Bioassay records (PubChem)
TSHR agonist: TSH receptor (human) agonism. HEK293-CNG-TSHR cells (CNG channel as cAMP sensor), membrane potential dye, cAMP. Potency, µM (highest dose often 57.1 µM), without a hit: at the highest dose activation, most hits filed as activators. 73,000 tested, 0.48% active; active = well fitted activation curve of enough size with the parental cells flat; inconclusive = any curve in the parental cells; inactive = parental cells flat and receptor cells flat or falling; also: potency is read from the fitted curve at half-maximal effect; % of control where 0% means no effect; weak receptor curves with flat parental cells got no call and are not listed
Target sequence (P16473 whole entry, looked up): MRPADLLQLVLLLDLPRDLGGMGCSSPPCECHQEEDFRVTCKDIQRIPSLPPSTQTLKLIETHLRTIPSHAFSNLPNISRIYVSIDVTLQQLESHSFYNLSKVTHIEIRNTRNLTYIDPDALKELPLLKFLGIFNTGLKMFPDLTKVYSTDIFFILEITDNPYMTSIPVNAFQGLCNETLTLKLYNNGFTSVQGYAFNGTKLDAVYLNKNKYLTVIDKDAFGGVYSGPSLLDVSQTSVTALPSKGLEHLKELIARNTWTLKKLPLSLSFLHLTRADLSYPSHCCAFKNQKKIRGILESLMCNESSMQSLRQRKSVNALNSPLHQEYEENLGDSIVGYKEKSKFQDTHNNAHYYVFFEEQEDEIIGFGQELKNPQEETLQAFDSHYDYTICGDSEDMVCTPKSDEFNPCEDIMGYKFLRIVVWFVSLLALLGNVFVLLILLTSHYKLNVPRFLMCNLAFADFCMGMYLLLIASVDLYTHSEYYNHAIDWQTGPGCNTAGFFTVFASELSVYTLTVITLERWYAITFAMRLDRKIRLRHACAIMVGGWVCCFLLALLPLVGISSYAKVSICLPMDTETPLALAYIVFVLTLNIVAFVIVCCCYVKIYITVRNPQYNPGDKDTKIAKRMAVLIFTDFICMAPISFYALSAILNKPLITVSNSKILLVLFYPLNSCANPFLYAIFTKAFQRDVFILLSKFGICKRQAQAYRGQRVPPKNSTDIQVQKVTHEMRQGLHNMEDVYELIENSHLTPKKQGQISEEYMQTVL
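HEK 293 cells stably expressing TSHR and a modified CNG channel, with CNG-only parental cells as counterscreen, were preloaded 60 min at room temperature with membrane potential dye containing 100 uM RO 20-1724. Compound exposure was 30 min, and depolarization was read as fluorescence at 590 nm.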
AID923: qHTS Assay for Allosteric/Competitive Inhibitors of Caspase-1: Spectroscopic Profiling in AFC Spectral Region. 75,000 tested, 1.1% active. compound fluorescence, AFC spectral region (405/520 nm); almost no hit is shown here. AID 923, 2007. Potency, µM (doses to about 57.5 µM), for inactives: at the top dose fluorescence increase, most hits filed as activators; active = well fitted activation curve with a large enough effect; inconclusive = small, poorly fitted or top-dose-only effect;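 also: potency is read from the fitted curve at half-maximal effect; 0% is about no effect; scaled to a free AFC standard on each plate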
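Titrations up to 57 uM read every 20 sec for 3 min (405/520 nm) with 50 nM caspase 1 and 5 uM Ac-WEHD-AFC, pH 7.5 HEPES buffer. Fluorescence-vs-time intercept gave baseline, scaled against on-plate AFC standard.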
A488 fluor: compound fluoresces in the A488 spectral region; max dye equivalency, M; AID 591; 59,000 tested, 0.1% active; compound autofluorescence, A488 spectral region, dye equivalency; active compounds read high; active = above 10 nM dye equivalent; inconclusive = 1 to 10 nM; inactive = 1 nM or less; about half of its hits are not listed in these tables;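 also: highest value over a series up to 38 µM; compound alone in buffer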
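Spectroscopic profiling in the A488 region: compounds in pH 8.0 Tris (100 mM), 15 min RT, CCD imaging with 480 nm excitation and 540 nm emission; responses normalized against A488 dye standards.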
A647 autofl: compound autofluorescence in A647 spectral region | Compound fluorescence, A647 channel (570/671 nm), Tris buffer | max dye-equivalent concentration, M | 59,000 tested, under 10 active | AID 592; active means above 1 µM dye equivalent; inconclusive means 0.1 to 1 µM; inactive means 0.1 µM or less;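 also: values scaled relative to a standard on each plate; highest value over a series up to 38 µM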
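Compounds pinned into 100 mM Tris pH 8.0, 15 min at room temperature, then read with 570 nm excitation/671 nm emission filters. Fluorescence normalized to an on-plate six-point Alexa 647 standard curve, giving dye-equivalent concentration per compound concentration.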
Resorufin autofl: compounds fluorescent in resorufin spectral region; 59,000 tested, 0.04% active; Compound fluorescence, resorufin region 547/598 nm, buffer; active compounds read high; max dye-equivalent concentration, M; active = above 10 nM dye equivalent; inconclusive = 1 to 10 nM; inactive = 1 nM or less; a few of its hits are not listed in these tables; also: highest value over a series up to 38 µM
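Intrinsic fluorescence profiled in the resorufin window (ex 547 nm, em 598 nm) after 15 min at room temperature in pH 8.0 Tris buffer (100 mM); responses normalized against a six-point resorufin standard series as dye-equivalent concentration.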
Starred values were filed as active, the others as inactive; i = inactive; ? = inconclusive; . = no result given; & = joins results of further samples; [ ] = dose if it differs, or a comment. Only part of the results is shown; the hit share may differ from the screen's.

SMILES	TSHR agonist	AID923	A488 fluor	A647 autofl	Resorufin autofl
COc1ccc(S(=O)(=O)N2CCC(C(=O)Nc3c(F)cccc3F)CC2)cc1	3%	-1.0%	.	.	.
O=C(NCCO)c1ccc2c(c1)S(=O)(=O)c1ccccc1C2=O	1%	1.0%	i	2.5e-09	i
CCCCc1nnc(NC(=O)CSc2nc(=O)cc(N)n2-c2ccccc2)s1	-9%	-2.4%	i	2.1e-08	i
OCCSc1nnc(Nc2ccccc2)s1	-2%	-1.9%	i	2.6e-08	i
CSCC[C@H](NC(=O)OC(C)(C)C)C(=O)N1CCC(C(=O)N[C@H](C(=O)O)C(C)C)CC1	?	0.0%	i	1e-09	i
N=C(N)SCCc1ccc(OCc2ccc([N+](=O)[O-])cc2)cc1	-2%	-3.0%	.	.	.
CN1C(=O)c2ccc(C(=O)NC3CCCCC3)cc2C1=O	?	-0.5%	i	1e-09	i
CCC(=O)Nc1ccc(N2CCN(Cc3ccccc3F)CC2)cc1	-5%	1.1%	i	4.5e-09	i
CCn1c(=O)c(C(=O)Nc2cccnc2)c(O)c2ccccc21	26%	-2.1%	i	8.6e-09	i
C[C@H]1CC[C@H](C(=O)O)N[C@@H]1c1ccc(C#Cc2ccccc2)cc1	0%[11.4 µM]	0.2%[11.5 µM]	.	.	.
CCn1c(=O)c2cc(C(=O)NCCN3CCOCC3)sc2c2ccccc21	4%	-2.5%	.	.	.
CC1CCCCN1S(=O)(=O)c1ccc(NC(=O)c2cccs2)cc1 (configuration not stated)	-11%	1.2%	.	.	.
CC1CCCCN1C(=O)CSc1nc2cc3c(cc2c(=O)n1Cc1ccc2c(c1)OCO2)OCO3 (configuration not stated)	.	1.5%	i	4.5e-09	i
CCCCCC#CCC#CCC#CCC#CCCCC(=O)O	.	.	i	1e-09	i
CCCn1c(CNC(=O)c2ccccc2)nc2ccccc21	7%	0.1%	i	2.5e-08	i
O=C(C1CCC1)N1CCc2cc(S(=O)(=O)NCc3ccco3)ccc21	?	-0.6%	i	1.7e-09	i
CCOc1ccc(C(=O)CCN2CCCCC2)cc1	?	-2.7%	i	2e-08	i
COc1ccc(CCNC(=O)Cn2cnc3c2c(=O)n(C)c(=O)n3C)cc1OC	0%	-0.7%	i	7.8e-09	i
Cc1nc(Nc2nc(=O)c3ccccc3n2C)nc2c(C)cccc12	-7%	1.7%	i	1e-08	i
Cc1ccc(-c2c3c(=O)n(C)c(=O)n(C)c3cn2-c2ccccc2O)cc1	-4%	-1.0%	i	1e-09	i

Profiles, looked up by structure.
CCn1c(=O)c2cc(C(=O)NCCN3CCOCC3)sc2c2ccccc21 is entered as TSHR agonist = 4%; AID923 = -2.5%; A488 fluor = .; A647 autofl = .; Resorufin autofl = .
CCOc1ccc(C(=O)CCN2CCCCC2)cc1 is entered as TSHR agonist = ?; AID923 = -2.7%; A488 fluor = i; A647 autofl = 2e-08; Resorufin autofl = i

Quoted at random: seven entries already listed, in no set order.
SMILES	TSHR agonist	AID923	A488 fluor	A647 autofl	Resorufin autofl
CCCCCC#CCC#CCC#CCC#CCCCC(=O)O	.	.	i	1e-09	i
COc1ccc(CCNC(=O)Cn2cnc3c2c(=O)n(C)c(=O)n3C)cc1OC	0%	-0.7%	i	7.8e-09	i
CC1CCCCN1C(=O)CSc1nc2cc3c(cc2c(=O)n1Cc1ccc2c(c1)OCO2)OCO3 (configuration not stated)	.	1.5%	i	4.5e-09	i
Cc1nc(Nc2nc(=O)c3ccccc3n2C)nc2c(C)cccc12	-7%	1.7%	i	1e-08	i
CCn1c(=O)c2cc(C(=O)NCCN3CCOCC3)sc2c2ccccc21	4%	-2.5%	.	.	.
CCCn1c(CNC(=O)c2ccccc2)nc2ccccc21	7%	0.1%	i	2.5e-08	i
Cc1ccc(-c2c3c(=O)n(C)c(=O)n(C)c3cn2-c2ccccc2O)cc1	-4%	-1.0%	i	1e-09	i

Later entries:
SMILES	TSHR agonist	AID923	A488 fluor	A647 autofl	Resorufin autofl
COc1ccc2c(C)cc(C)nc2n1	5%[11.4 µM]	-1.0%[11.5 µM]	i	1e-09	i
CC1(C)CC(=O)C2=C(C1)OC(/N=C/N1CCOCC1)=C(C#N)C2c1ccccc1 (configuration not stated)	?	-2.4%	i	3.6e-09	i
Cc1ccc(NC2c3ncccc3C(=O)N2C2CCCCC2)cc1 (configuration not stated)	1%	-1.2%	i	4.2e-09	i
O=C(c1ccco1)N1CCC[C@@]2(CCN(c3cccc(-c4ccccc4)c3)C2)C1	?	0.6%	i	1e-08	i
CC(=O)Nc1cc(C(=O)c2ccccc2)ccc1N1CCOCC1	2%	-2.0%	i	3.2e-08	i
Cc1ccc2cc(C(c3nnnn3C(C)(C)C)N3CCCC3)c(=O)[nH]c2c1C (configuration not stated)	4%	4.2%	i	1.6e-09	i
COC(=O)c1cccc(OC(N)=O)c1	2%[11.4 µM]	0.3%	.	.	.
Cc1ccc(-n2ncc3c(=O)[nH]c(SCC(=O)N4CCOCC4)nc32)cc1	-2%	2.0%	i	3.4e-08	i
Cc1ccc(NCN2C(=O)C3C4C=CC(C4)C3C2=O)cc1 (configuration not stated)	5%[11.4 µM]	1.0%	.	.	.
O=C(CCSc1ccc(F)cc1)Nc1ccc(-n2cnnn2)cc1	?	0.5%	i	3.4e-09	i
CN1CC(=O)Nc2ccc(F)cc2C1=O	.	.	i	9.5e-08	i
COc1ccc(CN2C(=O)CCC2(C)C(=O)NC2CCCCC2)c(OC)c1 (configuration not stated)	2%	0.7%	i	2.6e-08	i
O=C(CCCn1c(=O)c2sccc2n(Cc2cc(=O)n3ccccc3n2)c1=O)NCc1ccco1	8%	-1.1%	.	.	.
CC(=O)O[C@@H]1CC[C@]2(C)C(=C[C@@H]([C@@H]3C=C4C[C@@H](OC(C)=O)CC[C@]4(C)C4=C3[C@H]3C[C@@H]5O[C@@]6(CC[C@H](C)CO6)[C@@H](C)[C@@H]5[C@@]3(C)CC4)C3=C2CC[C@@]2(C)[C@H]4[C@@H](C)[C@]5(CC[C@H](C)CO5)O[C@@H]4C[C@H]32)C1	2%[11.4 µM]	-0.4%[11.5 µM]	i	1e-09	i
CCN(CC)CCNC(=O)Cc1nn(CC)c(=O)c2ccccc12	10%	-0.2%	i	3.9e-08	i
CCOC(=O)c1ccc2c(c1)n(CCO)c(C)[n+]2CC	3%	-0.8%	i	3e-08	i
CC(=O)Nc1ccc(OCC=C(Cl)Cl)cc1	1%	-1.9%	.	.	.
CCCCOc1ccc(OCCNS(=O)(=O)N(C)C)cc1	18%	0.4%	i	3.1e-09	i
CC1CC(C)(C)NC(=S)S1 (configuration not stated)	3%	-1.0%	i	1e-09	i
COc1ccc(N2C(=O)CSC23C(=O)N2CCCc4cccc3c42)cc1 (configuration not stated)	18%	-0.1%	i	1.8e-08	i
CN1CCN(Cc2c(O)ccc3c2oc(=O)c2ccccc23)CC1	7%	2.5%	.	.	.
Cc1ccccc1C(=O)c1cccn1CC(=O)NCc1ccco1	?	-0.1%	i	5.3e-09	i
CN1CC[C@H](CN2c3ccccc3Sc3ccccc32)C1	4%[11.4 µM]	2.4%[11.5 µM]	i	1.8e-08	i
COc1cc2c(cc1OC)C1(CCCC1)C(N)=C2C#N	.	.	i	1e-09	i
CCCCCn1c(SCCC(C)C)nc2c1c(=O)[nH]c(=O)n2C	?	-3.7%	i	1.1e-08	i
Clc1ccc(-n2ncc3c(NCc4cccs4)ncnc32)cc1	.	.	i	2.3e-09	i
Cc1cc(C(=O)NC2CCCC2)on1	-4%	-0.9%	.	.	.
COC(=O)c1ccccc1NC(=O)C12CCC(C)(C(=O)O1)C2(C)C (configuration not stated)	22%	2.0%	i	4.2e-09	i
O=C(CSc1nnnn1C1CCCCC1)NCc1ccc2c(c1)OCO2	9%	-0.2%	i	4.2e-08	i
COC(=O)c1cccc(Nc2nc3ccccc3nc2C)c1	?	6.8%	.	.	.
CCCN(c1ccc(OCC)cc1)c1ncnc2nc[nH]c12	?	1.0%	.	.	.
CC(=O)N1CC2(CC2)CC1c1ccccc1 (configuration not stated)	-4%	2.0%	.	.	.
CS(=O)(=O)N1CCC(C(=O)Nc2cccc(C(F)(F)F)c2)CC1	-8%	0.1%	i	3.4e-08	i
O=C(O)CCC(=O)NCCn1c(-c2ccccc2)csc1=Nc1ccccc1	-2%	-2.2%	i	2.7e-08	i
COc1ccc(S(=O)(=O)NCC2CCC(C(=O)N3CCC4(CC3)OCCO4)CC2)cc1 (configuration not stated)	1%	-1.7%	i	1.5e-08	i
CCCn1c(SCC(N)=O)nnc1-c1ccco1	-16%	-2.5%	i	2.5e-09	i
CCOC(=O)c1c(N)sn(-c2ccccc2)c1=S	-15%	-2.9%	i	6.1e-09	i
CCn1c(SCC(=O)NCCc2ccccc2)nnc1-c1cccs1	-4%[11.4 µM]	1.2%	i	1e-08	i
CCOC(=O)CC1=C(C(=O)OCC)C(c2ccc(OC)c(OC)c2)C(C#N)=C(N)O1 (configuration not stated)	.	.	i	1.9e-08	i
CCOC(=O)c1c(C)oc2ccc(OCC(=O)C(C)(C)C)cc12	.	.	i	9e-08	i
COc1ccc(NC(=O)Nc2ccc(C)cc2OC(F)F)cc1OC	-11%	-1.8%	i	5.8e-08	i
Nc1cc(C(=O)c2cccs2)ccc1Cl	19%	-1.1%	.	.	.
NC(N)=NC(N)=Nc1ccccc1	3%&6%	-0.6%&-1.0%	i	6.3e-09	i
CCOC(=O)c1c(NC(=O)c2ccc(S(=O)(=O)N3CCOCC3)cc2)sc2c1CCN(C)C2	.	1.8%	i	7.6e-09	i
C=CCNC(=O)c1cc(-c2ccc(Br)cc2)on1	6%	0.9%	i	1e-09	i
CCCOC(=O)Nc1nc2ccccc2o1	-4%	-1.0%	i	2.2e-08	i
N#Cc1nc(-c2cccs2)oc1NCCN1CCOCC1	.	.	i	1.4e-08	i
CN(C)CC(C)(C)CNC(=O)c1ccc(Cc2nc3ccccc3[nH]2)cc1	-5%	0.6%	.	.	.
CCOc1ccc(CCNC(=O)CN2CCN(Cc3ccc(F)cc3)C2=O)cc1OCC	?	-0.5%	i	1e-09	i
COc1cc(C2C(C#N)=C(N)Oc3cc(O)ccc32)cc2c1OCO2 (configuration not stated)	0%	-0.8%	.	.	.
CCCS(=O)(=O)N1CCCC(C(=O)NCc2cccnc2)C1 (configuration not stated)	3%	1.6%	i	1e-09	i

3 entries from above, arranged by heavy-atom count, ascending:
SMILES	TSHR agonist	AID923	A488 fluor	A647 autofl	Resorufin autofl
Cc1cc(C(=O)NC2CCCC2)on1	-4%	-0.9%	.	.	.
O=C(CSc1nnnn1C1CCCCC1)NCc1ccc2c(c1)OCO2	9%	-0.2%	i	4.2e-08	i
O=C(CCCn1c(=O)c2sccc2n(Cc2cc(=O)n3ccccc3n2)c1=O)NCc1ccco1	8%	-1.1%	.	.	.
